rRNA inh HTS – reduced GFP signal of wild-type E. coli, primary screen, bacterial rRNA inhibitor project, GFP/RFP fluorescence, OD600, single point; E. coli WT GFP vs humanized-ribosome RFP mutants, 24 h; hits give low values; DMSO median 0, no signal -100; GFP signal change (wild-type ribosome), % (test concentration not listed); 1.6% of 350,000 active; AID 720706, 2013;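 active = significant combined selectivity score with lowered wild-type GFP, culture density cut under 30%, mutant RFP and density less affected; inactive = any of these conditions unmet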; also: one replicate is shown; some compounds called inactive have numbers as strong as hits
E coli growth – E. coli growth inhibition, primary screen, OD600; Escherichia coli growth, 23 h; hits give low values; OD600 absorbance (no concentration beside the values); 0.21% of 330,000 active;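 active = OD600 absorbance below the run mean of sample wells minus 3.6 SD, in any replicate, cut at about 0.56 in these data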;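 also: stock transfer was 300 nL into about 60 µL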
T cruzi inh – inhibitors of intracellular T. cruzi growth, primary screen, luminescence, NIH3T3 host cells; 1.4% of 300,000 active; T. cruzi beta-gal in NIH3T3, 90 h; inhibition, % (test concentration not listed);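 active = mean inhibition across valid replicates above about 55%, limit read from the data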;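 also: signal also drops with host cell toxicity which is not excluded here; 0% = plate median of DMSO wells and 100% = zero luminescence signal; higher percent means less beta-gal luminescence so fewer parasites; stock transfer was 50 nL into about 50 µL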
A1 inh – caspase 3/7 activation in MEF A1-2A-BIM cells, primary screen, A1 inhibitor project, cell-based, luminescence, HTS; 0.066% of 330,000 active; caspase activation, % (test concentration not listed); Caspase-Glo 3/7 luminescence, 3 h; percent of clofoctol response, vehicle zero;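 active = over half of replicate activation scores above 10%, or exactly half above 10 with the replicate mean above 10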;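 also: wells of about 30 µL received 50 nL stock; many hits fall short of the cut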
FGF22 binding – binders of human FGF22 protein, primary screen, FGF22 synaptogenesis inhibitor project, biophysical, thermal shift, single point; 1.5% of 340,000 active; calls only at 9.99 µM; recombinant FGF22 thermal shift, SYPRO orange fluorescence; percent of sucrose octasulfate shift, DMSO zero;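 active = melting point raised past a set limit in the mean and every replicate; three in four hits are not shown here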
Target sequence (Q9HCT0 whole entry, looked up): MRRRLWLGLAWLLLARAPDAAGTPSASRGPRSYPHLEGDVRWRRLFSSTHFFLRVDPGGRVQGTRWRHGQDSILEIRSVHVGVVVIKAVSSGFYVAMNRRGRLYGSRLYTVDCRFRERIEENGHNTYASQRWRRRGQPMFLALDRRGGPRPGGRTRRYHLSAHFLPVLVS
MLL AF4-AF9 inh – inhibitors of AF4 peptide binding to AF9, primary screen, biochemical, AlphaScreen, biotin-AF4 peptide, FLAG-AF9, single point. Protein AF-9 (Homo sapiens), P42568. inhibition, % at 10 µM. 0.47% of 350,000 active;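 active = every replicate reaching a set inhibition limit, whatever the replicate mean, cut at about 25% in these data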;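 also: 0% = plate neutral control median and 100% = total signal loss; the record names both 10 and 1 µM as test concentration; the first replicate is given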
Target sequence (P42568 whole entry, looked up): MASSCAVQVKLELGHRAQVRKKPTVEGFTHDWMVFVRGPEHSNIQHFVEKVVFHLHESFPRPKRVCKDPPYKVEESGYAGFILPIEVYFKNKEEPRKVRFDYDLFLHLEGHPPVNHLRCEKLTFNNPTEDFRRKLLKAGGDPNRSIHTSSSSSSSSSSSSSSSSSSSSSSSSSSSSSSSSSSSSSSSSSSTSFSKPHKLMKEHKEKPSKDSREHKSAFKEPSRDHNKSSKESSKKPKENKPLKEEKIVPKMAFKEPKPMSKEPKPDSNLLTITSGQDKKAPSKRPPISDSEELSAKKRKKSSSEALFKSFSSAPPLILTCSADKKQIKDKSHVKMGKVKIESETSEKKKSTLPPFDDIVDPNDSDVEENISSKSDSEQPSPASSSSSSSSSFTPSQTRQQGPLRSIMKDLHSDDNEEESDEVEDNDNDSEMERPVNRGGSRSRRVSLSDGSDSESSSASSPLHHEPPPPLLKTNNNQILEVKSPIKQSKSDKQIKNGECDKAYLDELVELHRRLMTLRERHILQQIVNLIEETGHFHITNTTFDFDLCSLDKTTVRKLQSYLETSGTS
UCH37 inh – inhibitors of human UCH37 deubiquitinase, primary screen, biochemical, Ub-AMC cleavage, fluorescence | AID 588478, 2011 | inhibition, % (no concentration beside the values) | purified proteasome/UCH37 | 0.33% of 330,000 active;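 active = mean of two replicates above 20%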;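 also: 0% = compound-free wells with enzyme and 100% = wells lacking proteasome; stock transfer was 100 nL into about 20 µL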
Target sequence (Q9Y5K5 whole entry, looked up): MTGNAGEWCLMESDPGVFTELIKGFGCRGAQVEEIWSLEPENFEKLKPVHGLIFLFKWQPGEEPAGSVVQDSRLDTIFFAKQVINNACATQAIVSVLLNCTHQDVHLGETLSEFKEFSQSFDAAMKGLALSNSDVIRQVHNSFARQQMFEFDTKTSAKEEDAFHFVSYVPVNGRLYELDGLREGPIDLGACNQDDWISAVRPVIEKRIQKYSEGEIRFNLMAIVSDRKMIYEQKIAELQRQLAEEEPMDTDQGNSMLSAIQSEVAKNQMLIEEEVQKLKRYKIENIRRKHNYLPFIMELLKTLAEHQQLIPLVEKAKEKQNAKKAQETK
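system = Proteasome-associated human UCH37 deubiquitinase | amount = 0.15 nM proteasome as dispensed | medium = pH 7.4 Tris-HCl (50 mM) with ovalbumin, ATP-MgCl2, DTT | incubation = 30 min preincubation with enzyme, 25 min cleavage at room temperature | detection = AMC fluorescence 355/460 nm | read-out basis = percent inhibition | controls = no-proteasome and no-compound wells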
Beta apoptosis – inhibitors of cytokine-induced beta cell apoptosis, primary screen, luminescence. INS-1E cytokine-induced death, ATP luminescence, 48 h; percent of positive-control rescue, neutral wells zero. 0.8% of 300,000 active. protection from apoptosis, % (no concentration beside the values);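 active = all replicates at 75% or more, or half of them and the mean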;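 also: 0% = cytokine-treated negative control wells and 100% = positive control rescue; higher means more ATP so stronger rescue from cytokine killing; wells of about 40 µL received 100 nL stock; the first replicate is given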
rRNA inh HTS OD600 – also measured in rRNA inh HTS; calls as there; OD600 change, %; measured here: OD600 growth;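 optical density of the mix in the first replicate; 0 = DMSO median and -100 = no signal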
rRNA inh HTS RFP – second read-out of rRNA inh HTS, no call of its own (marks repeat the call); RFP signal change, %; measured here: RFP humanized mutant strains;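 first replicate; 0 = DMSO median and -100 = no signal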
Active calls of the source: *; i = inactive; . = no result given.

Start of the data: the first 14 entries (preview)
SMILES	rRNA inh HTS	rRNA inh HTS OD600	rRNA inh HTS RFP	E coli growth	T cruzi inh	A1 inh	FGF22 binding	MLL AF4-AF9 inh	UCH37 inh	Beta apoptosis
CCOc1ccc(S(=O)(=O)Nc2ccc(C(=O)NCC(c3ccco3)N3CCCCC3)cc2)cc1 (stereo not given)	-10	-20	13	0.63	-20	0.6	i	-5.2	5.1	-3
O=C(Cn1c(=O)oc2ccccc21)N1CCN(c2ccc(N3CCOCC3)nn2)CC1	22	8	1.4	0.67	8	0.4	i	-1.5	-136	2
O=C(CNC(=O)c1ccco1)NNC(=O)c1ccc(Br)cc1	6	6	0.1	0.66	.	-0.4	i	-0.6	3.9	-6
Brc1ccccc1OCCOCCOc1cccc2cccnc12	.	.	.	0.77	5	0.3	.	.	2.3	-7
Cc1cc(Cl)ccc1C(=O)C1CCCN(C(=O)c2ccoc2)C1 (stereo not given)	-25*	-20*	-6.4*	0.72	-2	-0.3	i	4.3	3.9	-6
Cc1ccn(C(CC(=O)c2ccc(Br)cc2)C(=O)O)n1 (stereo not given)	.	.	.	0.65	-7	-0.5	.	.	7.3	18
CCC1(C)NC(=O)N(CC(=O)NCC(=O)Nc2c(C)cc(C)cc2C)C1=O (stereo not given)	8	20	6.3	0.65	.	-0.1	i	-2.5	4.4	4
COc1ccc(NC(=S)Nc2ccc3nsnc3c2)cc1	.	.	.	0.58	-17	-0.5	.	.	40*	2
Cc1cc([N+](=O)[O-])nn1CC(=O)N1CCOCC1	1	8	-12	0.66	-9	-0.7	i	1.0	0.4	-6
Cc1ccc(NC(=S)Nc2cccc(S(=O)(=O)Nc3c(C)n(C)n(-c4ccccc4)c3=O)c2)cc1	4	-3	-2.1	0.7	-6	-0.2	i	-0.3	4.1	8
Cc1cccc(OCCC(=O)OCC(=O)N2CCc3ccccc32)c1	.	.	.	0.71	5	-0.6	.	.	2.4	-1
Cc1ccc(Oc2ncnc3sccc23)cc1	.	.	.	0.62	-9	-0.6	.	.	2.0	-7
Cc1ccc(S(=O)(=O)Nc2ccc3c4c(cccc24)CC3)c(C)c1	.	.	.	0.76	14	-1.5	.	.	5.8	10
C=CCN(c1ccccc1)S(=O)(=O)c1ccc2[nH]cc(C(=O)NCCOC)c(=O)c2c1	5	12	1.8	0.7	2	1.2	i	-0.8	-1.4	1

All compounds of this part, previewed entries included:
SMILES	rRNA inh HTS	rRNA inh HTS OD600	rRNA inh HTS RFP	E coli growth	T cruzi inh	A1 inh	FGF22 binding	MLL AF4-AF9 inh	UCH37 inh	Beta apoptosis
CCOc1ccc(S(=O)(=O)Nc2ccc(C(=O)NCC(c3ccco3)N3CCCCC3)cc2)cc1 (stereo not given)	-10	-20	13	0.63	-20	0.6	i	-5.2	5.1	-3
O=C(Cn1c(=O)oc2ccccc21)N1CCN(c2ccc(N3CCOCC3)nn2)CC1	22	8	1.4	0.67	8	0.4	i	-1.5	-136	2
O=C(CNC(=O)c1ccco1)NNC(=O)c1ccc(Br)cc1	6	6	0.1	0.66	.	-0.4	i	-0.6	3.9	-6
Brc1ccccc1OCCOCCOc1cccc2cccnc12	.	.	.	0.77	5	0.3	.	.	2.3	-7
Cc1cc(Cl)ccc1C(=O)C1CCCN(C(=O)c2ccoc2)C1 (stereo not given)	-25*	-20*	-6.4*	0.72	-2	-0.3	i	4.3	3.9	-6
Cc1ccn(C(CC(=O)c2ccc(Br)cc2)C(=O)O)n1 (stereo not given)	.	.	.	0.65	-7	-0.5	.	.	7.3	18
CCC1(C)NC(=O)N(CC(=O)NCC(=O)Nc2c(C)cc(C)cc2C)C1=O (stereo not given)	8	20	6.3	0.65	.	-0.1	i	-2.5	4.4	4
COc1ccc(NC(=S)Nc2ccc3nsnc3c2)cc1	.	.	.	0.58	-17	-0.5	.	.	40*	2
Cc1cc([N+](=O)[O-])nn1CC(=O)N1CCOCC1	1	8	-12	0.66	-9	-0.7	i	1.0	0.4	-6
Cc1ccc(NC(=S)Nc2cccc(S(=O)(=O)Nc3c(C)n(C)n(-c4ccccc4)c3=O)c2)cc1	4	-3	-2.1	0.7	-6	-0.2	i	-0.3	4.1	8
Cc1cccc(OCCC(=O)OCC(=O)N2CCc3ccccc32)c1	.	.	.	0.71	5	-0.6	.	.	2.4	-1
Cc1ccc(Oc2ncnc3sccc23)cc1	.	.	.	0.62	-9	-0.6	.	.	2.0	-7
Cc1ccc(S(=O)(=O)Nc2ccc3c4c(cccc24)CC3)c(C)c1	.	.	.	0.76	14	-1.5	.	.	5.8	10
C=CCN(c1ccccc1)S(=O)(=O)c1ccc2[nH]cc(C(=O)NCCOC)c(=O)c2c1	5	12	1.8	0.7	2	1.2	i	-0.8	-1.4	1
Cc1c(Br)c(=O)oc2c(Br)c(O)ccc12	-13	-18	-2.3	0.68	-19	-0.2	i	3.1	-168	-3
COc1ccccc1NC(=O)CCCN1C(=O)C(c2ccccc2)Oc2cccnc21 (stereo not given)	-8	-38	-4.4	0.72	10	0.9	i	0.7	5.8	1
CCC(=O)Oc1ccc(C(=O)Nc2ccc3c(c2)OCO3)cc1	9	10	-3.6	0.7	-18	-9.8	.	-15	3.4	12
Cc1cc(=O)[nH]c(N/N=C/c2cc(C)n(-c3ccccc3)c2C)n1	11	-3	3.1	.	-7	-2.5	i	8.4	.	2
Cc1cc(C)n2nc(S(=O)(=O)NC(C)(C)C)nc2n1	1	-4	1.2	0.71	1	0.2	i	-1.1	5.7	-4
Cc1cc2cc(CN(Cc3cccs3)C(=S)NCC3CCCO3)c(=O)[nH]c2cc1C (stereo not given)	.	.	.	0.68	23	0.7	.	.	-0.7	-2

The list goes on (2 carried over from the part before).
SMILES	rRNA inh HTS	rRNA inh HTS OD600	rRNA inh HTS RFP	E coli growth	T cruzi inh	A1 inh	FGF22 binding	MLL AF4-AF9 inh	UCH37 inh	Beta apoptosis
Cc1cc(C)n2nc(S(=O)(=O)NC(C)(C)C)nc2n1	1	-4	1.2	0.71	1	0.2	i	-1.1	5.7	-4
Cc1cc2cc(CN(Cc3cccs3)C(=S)NCC3CCCO3)c(=O)[nH]c2cc1C (stereo not given)	.	.	.	0.68	23	0.7	.	.	-0.7	-2
O=C(C(NS(=O)(=O)c1cccc2nsnc12)c1ccccc1)N1CCN(c2ccccc2)CC1 (stereo not given)	0	-3	9.4	0.77	19	-0.6	i	17	2.3	7
CC1(C)C2(C#N)C(=O)NC(=O)C12C#N (stereo not given)	3	7	-2.6	0.68	.	.	i	4.0	5.0	.
OC1(C(F)(F)F)CC(c2ccc3ccccc3c2)=NO1 (stereo not given)	-17	-30	-0.1	0.62	8	-0.2	i	-1.9	0.9	-6
CC(C)c1ccc2c(c1)C(=O)NC(C)(C)C2	-5	-12	-2.6	0.72	0	0.2	i	-5.0	-1.8	-11
Cc1cc(NC(=O)CSc2cn(C)c3ccccc23)no1	1	10	2.7	0.68	-9	0.4	i	-6.4	2.7	-4
C#CCOCCOCCOCCNc1nc(N2CCN(C(=O)[C@H]([C@@H](C)CC)n3cc([C@@H](N)CC(C)C)nn3)CC2)nc(N2CCN(C(=O)[C@H](Cc3cc4ccccc4[nH]3)n3cc([C@@H](N)Cc4ccc(O)cc4)nn3)CC2)n1	.	.	.	.	-12	1.8	.	.	0.4	0
COc1ccc(S(=O)(=O)N(CC(=O)NCCCN(C)C)c2ccc(C)cc2)cc1OC	.	.	.	0.72	1	-0.3	.	.	2.2	-1
C=CCNC(=O)C1CC(=O)N(c2ccc(OCc3ccc(F)cc3)cc2)C1 (stereo not given)	3	0	-2.8	0.71	1	-10	i	0.1	1.1	-2
CC1(C)C(CSc2nc3ccccc3[nH]2)C1(Cl)Cl (stereo not given)	-40	-51	-14	0.68	15	-0.3	i	-1.0	2.9	-3
COc1ccc(-c2cc3nc(C4CCN(C(=O)OC(C)(C)C)CC4)c(C(=O)O)cn3n2)cc1	19	14	8.4	0.72	1	0.3	i	-19	-44	4
COc1ccccc1NC(=O)COc1ccc(/C=N/NC(=O)c2cccnc2)cc1	10	5	0.1	.	-1	1.4	i	-5.7	.	-7
S=c1nccc(-c2ccc(Cl)cc2)[nH]1	.	.	.	0.61	-3	-0.1	i	-1.6	2.8	.
COc1ccc2oc(C(=O)OCc3nnc(-c4ccccc4)o3)c(C)c2c1	2	-1	-3.3	0.67	-11	-0.3	i	-2.4	-12	-5
CC(=O)N1CCN(Cc2nc3cc(NC(=O)NC4CCCCC4)ccc3n2C)CC1	27	22	3.8	0.7	-4	-1.8	i	-2.7	0.6	.
COc1ccc(/C=C2/SC(=S)N(CCCC(=O)Nc3cccc(O)c3)C2=O)cc1	-1	-1	2.4	0.68	-3	-0.2	i	10	4.0	-6
C=C(C)COc1ccc2c(C)c(C)c(=O)oc2c1OCC(=C)C	.	.	.	0.77	8	0.1	.	.	-6.4	10
Cc1ccnc(NC(=O)CCC(=O)N(CC(=O)NC2CCCCC2)C2CCCC2)c1	6	19	10	0.67	-3	-0.1	i	2.9	0.9	-7
Nc1nc(CSc2nc3ccccc3s2)nc(N2CCCCC2)n1	.	.	.	0.76	23	-1.1	.	.	2.2	1
CC(C)Sc1nc2ccccc2n1CC(=O)O	20	14	1.0	0.67	-8	-0.3	i	-0.3	2.3	-3
c1ccc(CNc2ncnc3c2cnn3-c2ccccc2)cc1	.	.	.	0.65	-56	-0.3	.	.	-0.5	16
Cc1ccc2[nH]c(CNC(=O)c3ccc(F)cc3)cc2c1	6	2	0.9	0.64	10	1.7	i	-0.5	2.5	-4
CCOc1ccc(N2C(=O)CC(NCCNc3ccc([N+](=O)[O-])cn3)C2=O)cc1 (stereo not given)	.	.	.	0.7	-2	0.4	i	6.5	9.2	6
N#CC(C#N)=c1ccc2c(c1)N1C3=C(CCCC3)CC3CCCCC31N=2 (stereo not given)	.	.	.	0.8	20	0.2	.	.	3.2	26
COc1cc(/C=N/S(=O)(=O)c2ccccc2)cc(OC)c1O	10	20	0.2	.	-3	1.6	i	0.9	.	-3
CC(C)CC(=O)Nc1ccc2c(c1)nc(CCN1CCOCC1)n2C	8	14	-1.3	0.67	-10	1.2	i	-1.0	1.4	-6
COCCn1c(N)c(C(=O)NCC2CCCO2)c2nc3ccccc3nc21 (stereo not given)	.	.	.	0.71	8	-0.4	.	.	i	-9
CCCOc1ccc(-c2cc(C(=O)NCC3CCCO3)c3ccccc3n2)cc1 (stereo not given)	.	.	.	.	2	-1.4	i	-0.9	.	6
CN1CCN(c2ccc(S(=O)(=O)N3CCCCC3)cc2NC(=O)/C=C/c2ccc(OC(F)F)cc2)CC1	-8	2	8.2	0.69	34	2.1	i	7.8	6.2	3
O=C(NCC1CCN(Cc2ccc(Cl)cc2)CC1)C1CCCN(c2ncnc3c2nc2n3CCCCC2)C1 (stereo not given)	-5	-1	4.1	0.69	49	0.1	i	4.1	3.7	10
COCCCNC(=O)/C(C#N)=C/c1c(N2CCN(c3ccccc3)CC2)nc2c(C)cccn2c1=O	15	8	2.5	0.61	-5	0.0	i	16	-34	-9

Screening results (PubChem)

The list is partial (hit frequency here may not be typical).
